# Vif TR-FRET – inhibitors of Vif binding to APOBEC3G peptide, primary screen, biochemical, TR-FRET, GST-Vif 1-94, biotin-A3G peptide, dose response retest (AID 1117319); Virion infectivity factor (Human immunodeficiency virus type 1 group M subtype B (isolate …; TR-FRET GST-Vif / biotin-A3G peptide binding; higher % means a stronger effect; test concentration not given here; strong numbers were not always called active; inhibition, %, or IC50 in µM where a hit was titrated; 0.57% of 260,000 active;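 active = above the screen mean plus three standard deviations and confirmed in dose response; inconclusive = results disagree or hit not tested in dose response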;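 also: Vif residues 1-94 fused to GST binding biotinylated APOBEC3G peptide 110-148; 0% = full assay without inhibitor and 100% = GST in place of GST-Vif; retest series ran down from 100 µM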
# Ecoli growth – E. coli growth inhibition, primary screen, OD600; 0.21% of 330,000 active; OD600 absorbance (concentration not given with the values); Escherichia coli growth, 23 h; hits give low values;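 active = OD600 absorbance below the run mean of sample wells minus 3.6 SD, in any replicate, cut at about 0.56 in these data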;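 also: stock transfer was 300 nL into about 60 µL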
# HNF4A DNA FP – change in binding of human HNF4A to DNA, primary screen, biochemical, fluorescence polarization, FITC-DNA; 1 h; activity change, % at 10 µM; 0.3% of 360,000 active; AID 1224865, 2016; in the data active = activity change above about 30%, passing the limit was not always enough;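 also: controls were the assay level and a saturating level of protein; the project sought stronger binding though the title names inhibitors; some compounds called inactive have numbers as strong as hits; positive values seem to mean higher polarization but the record does not say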
# Target sequence (P41235 whole entry, looked up): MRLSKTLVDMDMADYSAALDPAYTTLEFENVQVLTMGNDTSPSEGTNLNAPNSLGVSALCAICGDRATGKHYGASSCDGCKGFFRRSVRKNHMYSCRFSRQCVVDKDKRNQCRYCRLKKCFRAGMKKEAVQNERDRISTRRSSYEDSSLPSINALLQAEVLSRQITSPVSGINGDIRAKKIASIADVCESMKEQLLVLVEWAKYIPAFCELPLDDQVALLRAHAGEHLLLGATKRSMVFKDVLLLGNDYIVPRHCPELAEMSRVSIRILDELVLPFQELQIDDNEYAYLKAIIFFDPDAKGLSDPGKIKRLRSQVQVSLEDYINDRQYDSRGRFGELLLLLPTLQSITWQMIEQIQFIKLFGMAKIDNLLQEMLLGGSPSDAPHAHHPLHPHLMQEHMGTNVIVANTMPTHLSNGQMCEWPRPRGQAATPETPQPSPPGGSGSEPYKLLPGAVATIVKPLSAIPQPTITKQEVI
# MLL AF4-AF9 inh – inhibitors of AF4 peptide binding to AF9, primary screen, biochemical, AlphaScreen, biotin-AF4 peptide, FLAG-AF9, single point; 0.47% of 350,000 active; Protein AF-9 (Homo sapiens), P42568; inhibition, % at 10 µM;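 active = every replicate reaching a set inhibition limit, whatever the replicate mean, cut at about 25% in these data; inconclusive = mean inhibition reaches that limit but some replicates miss it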;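 also: 0% = plate neutral control median and 100% = total signal loss; the record names both 10 and 1 µM as test concentration; the first replicate is given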
# RanGTP-Impb inh – inhibitors of RanGTP-importin-beta interaction, primary screen, biochemical, FRET, CFP-Ran, YFP-importin-beta, homogeneous | 1.1% of 300,000 active | AID 2216, 2009 | cell-free CFP-Ran/YFP-importin-beta FRET ratio | Ran GTPase (GTP-bound) - importin-beta complex | inhibition, % (test concentration not listed);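 active = most replicates above 15%; inconclusive = exactly half above 15%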;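 also: 0% = DMSO wells and 100% = Ran loaded with GDP instead of GTP; wells of about 40 µL received 100 nL stock; the first replicate is given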
# UCH37 DUB inh – inhibitors of human UCH37 deubiquitinase, primary screen, biochemical, Ub-AMC cleavage, fluorescence; Ubiquitin carboxyl-terminal hydrolase isozyme L5 (Homo sapiens), Q9Y5K5; inhibition, % (test concentration not listed); 0.33% of 330,000 active; purified proteasome/UCH37; AID 588478, 2011;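 active = mean of two replicates above 20%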;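 also: 0% = compound-free wells with enzyme and 100% = wells lacking proteasome; stock transfer was 100 nL into about 20 µL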
# Target sequence (Q9Y5K5 whole entry, looked up): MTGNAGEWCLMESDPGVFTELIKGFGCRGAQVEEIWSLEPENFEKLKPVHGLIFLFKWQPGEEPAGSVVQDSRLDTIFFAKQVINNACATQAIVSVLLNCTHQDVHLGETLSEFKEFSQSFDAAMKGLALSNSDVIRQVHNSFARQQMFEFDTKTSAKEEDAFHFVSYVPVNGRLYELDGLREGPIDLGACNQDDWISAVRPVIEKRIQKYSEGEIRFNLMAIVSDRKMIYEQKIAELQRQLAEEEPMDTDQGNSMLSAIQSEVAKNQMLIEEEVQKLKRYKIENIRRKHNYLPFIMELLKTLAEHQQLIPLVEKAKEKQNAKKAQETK
#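 Material: Human UCH37 enzyme supplied as purified proteasome complex | Schedule: 30 min compound-proteasome preincubation then 25 min substrate reaction, room temperature | Detection: AMC fluorescence from Ub-AMC cleavage, excitation 355 nm, emission 460 nm | Benchmarks: Wells without proteasome as full block, compound-free enzyme plus substrate as uninhibited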
# FGF22 binding – binders of human FGF22 protein, primary screen, FGF22 synaptogenesis inhibitor project, biophysical, thermal shift, single point. Fibroblast growth factor 22 (Homo sapiens), Q9HCT0. 1.5% of 340,000 active. recombinant FGF22 thermal shift, SYPRO orange fluorescence; percent of sucrose octasulfate shift, DMSO zero. AID 651658, 2012. calls only at 9.99 µM;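 active = melting point raised past a set limit in the mean and every replicate; inconclusive = no clear call; three in four hits are not shown here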
# Target sequence (Q9HCT0 whole entry, looked up): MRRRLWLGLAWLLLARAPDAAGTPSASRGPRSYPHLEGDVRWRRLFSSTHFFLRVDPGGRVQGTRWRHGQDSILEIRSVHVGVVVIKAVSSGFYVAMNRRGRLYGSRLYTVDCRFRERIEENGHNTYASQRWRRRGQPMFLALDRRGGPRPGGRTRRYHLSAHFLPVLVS
# An asterisk follows results filed as active; i = inactive; ? = inconclusive; . = no result given; ! = not confirmed by another sample.
SMILES,Vif TR-FRET,Ecoli growth,HNF4A DNA FP,MLL AF4-AF9 inh,RanGTP-Impb inh,UCH37 DUB inh,FGF22 binding
Cc1ccccc1NS(=O)(=O)c1ccc(N2CCCC2=O)cc1,-5%,0.75,-1.2,.,-1.5,3.2,.
Cc1csc(NC(=O)C(C)Oc2ccc(Br)cc2)n1 (stereo not drawn),-8%,0.65,-2.0,-9.3,-1.1,5.8,i
CCOC(=O)N1CCC(N(CCN(C)C)C(=S)Nc2ccccc2C)CC1,-10%,0.68,-1.9,-1.8,5.8,2.6,i
CSc1cccc(NC(=S)N2CCC(N(C)C3CCCCCC3)CC2)c1,-1%,0.69,-0.1,4.7,-8.0,4.1,i
COc1ccc(S(=O)(=O)NC(=O)C2(C)CCN2C(=O)C2(c3ccc(Cl)cc3)CCC2)cc1 (stereo not drawn),.,.,2.1,-2.0,.,.,i
O=C(N/N=C/C(Cl)=C/c1ccccc1)c1ccccc1F,.,.,-0.2,4.9,-3.7,.,i
Cc1onc(-c2ccccc2)c1C(=O)NC(=S)Nc1sc2c(c1C#N)CCC(C)C2 (stereo not drawn),.,0.74,2.4,-3.3,-0.9,3.0,i
CCOC(=O)c1ccc(NC(=O)Cn2cnc3cc(C)c(C)cc32)cc1,5%,0.66,1.7,-4.4,1.5,1.3,i
C=CCNC(=O)Cn1nc(-c2ccccc2)ccc1=O,5%,0.7,-2.4,?,3.1,1.7,.
CN(C)S(=O)(=O)N(CC(=O)Nc1ccccc1F)c1ccccc1,?,0.67,0.7,.,?,0.8,.
CCCn1c(SCC(=O)Nc2cccc(Cl)c2Cl)n[nH]c1=O,1%,0.71,2.8,-2.9,-2.2,0.9,i
CC(=O)N1CCC2(CC1)C(C#N)=C(N)Oc1n[nH]c(C(F)(F)F)c12,16%,0.7,2.1,.,5.7,3.6,.
O=C(Nc1cccc(F)c1)/C(=C/c1ccco1)NC(=O)c1ccco1,12%,0.7,13,4.1,1.4,5.4,i
COc1ccccc1NC(=O)C1=C(C)NC(=O)NC1c1ccccc1F (stereo not drawn),6%,0.74,0.0,2.5,.,6.9,i
CCC(C)C1NC(=S)N(Cc2ccccc2)C1=O (stereo not drawn),-3%,0.74,-2.5,.,2.4,4.6,.
CCCCC#Cc1ccc(C(=O)NNC(=O)Nc2cc(Cl)cc(Cl)c2)o1,-2%,0.63,-0.4,-0.9,-0.9,2.1,i
CC(=O)Nc1cc(-c2cccc(CO)c2)cn2c(-c3ccc(C(C)=O)cc3)cnc12,.,.,1.7,0.7,.,.,i
O=C(Cc1ccccc1)Nc1ccc2oc(-c3ccncc3)nc2c1,1%,0.79,6.8,.,2.5,-32,.
Cc1ccc(C#N)c(SCCN2CCCCC2)n1,1%,0.67,-0.9,0.2,1.9,3.4,i
COC(C/C=C\C(=O)[C@H](C)OCc1ccccc1)OC,.,.,-1.4,2.1,0.9,.,i
COc1ccccc1NC(=O)Cn1nnc(-c2ccccc2NS(=O)(=O)c2ccccc2)n1,.,0.68,3.9,2.3,0.9,4.3,i
Cc1ccc(NC(=S)Nc2cccc3ccccc23)cc1F,.,0.68,4.3,2.2,10,3.4,i
COc1ccc(NS(=O)(=O)c2ccc(Br)s2)cc1OC,32%,0.69,0.8,.,2.5,4.1,.
CCOC(=O)N1CCC(NC(=O)C2CCCN(Cc3nc(-c4cccc(C)c4)oc3C)C2)CC1 (stereo not drawn),1%,0.67,3.4,0.3,?,4.2,i
COc1ccc(-c2noc(CCC(=O)N3CCN(c4cccc(C)c4C)CC3)n2)cc1,-3%,0.73,8.0,1.2,.,-1.1,i
# The listing continues.
SMILES,Vif TR-FRET,Ecoli growth,HNF4A DNA FP,MLL AF4-AF9 inh,RanGTP-Impb inh,UCH37 DUB inh,FGF22 binding
CCS(=O)(=O)c1nc(S(=O)(=O)c2ccc(Cl)cc2)c(N2CCc3ccccc3C2)s1,26%,0.73,-0.5,-2.5,-2.4,4.7,i
CCOc1ccc(OCC)c(S(=O)(=O)n2cnc(C)c2)c1,.,0.69,0.8,0.7,4.0,0.7,i
C[C@@H]1CN([C@H](C)CO)C(=O)c2c(c3ccccc3n2C)-c2ccccc2CO[C@H]1CN(C)Cc1ccc2c(c1)OCCN2C,-1%,.,1.6,42*!,.,.,i
COc1ccc(C2CC(c3ccccc3)=NN2C(=O)COC(=O)C2CC2)cc1 (stereo not drawn),2%,0.72,4.6,2.0,-2.4,-0.2,i
COc1cc(OC)c(N2CC(C(=O)Nc3cc(Cl)ccc3N3CCOCC3)CC2=O)cc1Cl (stereo not drawn),.,0.7,2.4,-0.4,.,3.4,i
O=C(O)C1CC(=O)N(c2ccc(OCc3ccccc3)cc2)C1 (stereo not drawn),3%,0.71,0.5,.,-2.4,1.8,.
O=C1c2ccccc2C(=O)N1CCC#Cc1ccc2cc(C3(O)CCCCC3)oc(=O)c2c1,.,0.7,1.7,-2.9,.,4.2,i
CCOC(=O)C(=O)c1csc(NC(=O)CCSc2ccc(C)cc2)n1,.,0.69,-0.3,-2.1,-4.4,1.7,i
NC(=O)NC(=O)COC(=O)CCCc1c[nH]c2ccccc12,2%,0.65,-2.1,.,1.2,-0.1,.
CCCC(=O)N1CCC1(C)C(=O)Nc1ccc(C)cc1 (stereo not drawn),.,.,1.3,-2.0,.,.,i
Cc1cc(N/C=C/C(=O)c2ccccc2)ccc1Br,-3%,0.72,3.9,1.1,-3.3,0.0,.
CCOc1ccccc1NC(=O)C1CCCN(S(=O)(=O)c2c(C)[nH]c(=O)[nH]c2=O)C1 (stereo not drawn),4%,0.76,1.1,.,-2.3,0.1,.
Cc1cccc(CN2CCNC2=O)c1,-5%,0.65,2.2,.,.,6.9,.
CCCCNC(=O)C1CCN(C(=O)Nc2ccc(C)cc2)CC1,-6%,0.67,-2.4,.,3.6,-0.6,.
COc1cc2nc(NCCCN3CCN(C)CC3)n3nc(-c4ccccc4)nc3c2cc1OC,28%,0.68,-1.3,.,3.4,-73,.
O=C(c1cccc(C(F)(F)F)c1)N1CCOc2ccccc21,-7%,0.67,0.0,2.0,1.3,3.5,i
COc1ccc(Br)cc1/C=N/NC(=O)c1cccc(S(=O)(=O)N2CCOCC2)c1,-4%,.,4.9,3.6,1.6,.,i
COc1ccc(Cl)cc1NC(=O)CN1CCN(C(=O)N2CCOCC2)CC1,.,0.67,0.0,1.2,6.7,4.3,i
CC1CC(C)(C)CC2(C1)NC(=O)N(CC(=O)Nc1nccs1)C2=O (stereo not drawn),4%,0.68,0.5,5.3,-1.0,5.9,i
COc1cc(C(=O)N2CCc3ccccc32)cc(OC)c1OC,-8%,0.61,2.0,0.5,-2.9,-0.7,i
Clc1ccc(Cl)c(OCCN2CCOCC2)c1,-6%,0.65,-0.6,.,1.7,0.5,.
O=C1CC[C@@H]2CC3(C[C@@H]4CCN1[C@H]24)Nc1cc([N+](=O)[O-])ccc1NC3=NC1CCCCC1 (stereo partly drawn),.,.,1.1,5.4,.,.,i
Cc1ccc(NC(=O)C(C)N2CCCC2)cc1Cl (stereo not drawn),-2%,0.62,3.6,-3.9,2.4,2.1,i
COCCCNC(=O)CCN1N=C(c2ccccc2)CCC1=O,3%,0.66,1.4,0.4,2.2,3.5,i
O=C1N[C@@H](Cc2c[nH]c3ccccc23)COC(=O)[C@@H](Cc2ccc(F)cc2)C/C=C\C[C@H]1CC(=O)N(CCO)Cc1ccccc1,.,.,-1.2,3.3,.,1.2,i

# One compound at a time, as listed above.
# CCOc1ccc(OCC)c(S(=O)(=O)n2cnc(C)c2)c1 is listed with Vif TR-FRET = .; Ecoli growth = 0.69; HNF4A DNA FP = 0.8; MLL AF4-AF9 inh = 0.7; RanGTP-Impb inh = 4.0; UCH37 DUB inh = 0.7; FGF22 binding = i
# COc1ccc(C2CC(c3ccccc3)=NN2C(=O)COC(=O)C2CC2)cc1 (stereo not drawn) is listed with Vif TR-FRET = 2%; Ecoli growth = 0.72; HNF4A DNA FP = 4.6; MLL AF4-AF9 inh = 2.0; RanGTP-Impb inh = -2.4; UCH37 DUB inh = -0.2; FGF22 binding = i
# Cc1cc(N/C=C/C(=O)c2ccccc2)ccc1Br is listed with Vif TR-FRET = -3%; Ecoli growth = 0.72; HNF4A DNA FP = 3.9; MLL AF4-AF9 inh = 1.1; RanGTP-Impb inh = -3.3; UCH37 DUB inh = 0.0; FGF22 binding = .

# (further entries)
SMILES,Vif TR-FRET,Ecoli growth,HNF4A DNA FP,MLL AF4-AF9 inh,RanGTP-Impb inh,UCH37 DUB inh,FGF22 binding
CC1CC(C)CN(C(=O)c2cccc(S(=O)(=O)NCc3ccccc3)c2)C1 (stereo not drawn),.,0.71,3.1,1.3,.,-1.4,i
CC(=O)NCCc1nc2cc(NS(=O)(=O)c3ccccc3)ccc2n1C,-1%,0.67,-0.8,0.8,-0.8,-0.5,i
C/C(=N\N=C1\NC(=O)C(CC(=O)Nc2ccc(C)c(Cl)c2)S1)C(C)C (stereo not drawn),-4%,.,-2.1,-2.1,8.5,.,i
O=C(N/N=C/c1ccc(Br)o1)c1cncc(Br)c1,.,.,-1.1,-2.3,-4.3,.,i
CCn1c(CNC(=O)c2cccs2)n[nH]c1=S,-3%,0.7,-0.5,25*,-1.1,5.2,i
O=C(CSc1ccc(-c2ccccn2)nn1)N1CCCCC1,-6%,.,2.0,-0.9,-4.0,.,i
O=C(Oc1cccnc1)c1ccc(Cl)c(Cl)c1,-3%,0.69,8.0,.,-3.4,6.6,.
O=C1OCc2ccc(NC(=O)c3ccccc3C(=O)O)cc21,-7%,0.7,2.0,0.0,4.5,1.1,i
COc1ccc(CN(C(=O)c2ccco2)c2ccc(Br)cc2)cc1OC,5%,0.7,-0.2,.,0.0,1.8,.
COc1nccnc1NS(=O)(=O)c1ccc(N)cc1,-8%,0.64,0.2,1.0,2.9,0.6,i
Cc1ccc2ncc([N+](=O)[O-])n2c1,25%,0.7,0.1,.,2.7,9.4,.
NC(=O)CN1C(=O)C2C3C=CC(C3)C2C1=O (stereo not drawn),-4%,0.71,-0.7,.,?,2.9,.
CNC(=O)CSc1nnc(-c2ccco2)n1-c1cccc(C)c1C,.,0.67,-0.5,-1.7,0.5,2.5,i
O=C(O)C1CCCN1S(=O)(=O)c1ccc(Cl)cc1 (stereo not drawn),13%,0.68,3.9,-1.4,2.6,2.0,i
CCCN1/C(=C2/SC(=S)N(CC)C2=O)C=Cc2ccccc21,22%,0.72,6.8,.,-7.7,3.7,.
COc1ccccc1NC(=O)c1ccc(NC(=O)COC(=O)CCC2CCCC2)cc1,.,0.67,-0.1,-0.5,-0.6,0.4,i
COc1ccc(/C=C(\C#N)C(=O)OCC(=O)NCc2ccco2)cc1,.,0.69,1.9,-5.2,2.2,0.6,i
COc1cccc(CC2(CO)CCCN(Cc3cnn(-c4ccccc4)c3)C2)c1 (stereo not drawn),8%,0.69,-2.1,2.5,-0.6,0.0,i
CCc1nnc(NC(=O)C2CC(=O)N(Cc3ccccc3)C2)s1 (stereo not drawn),3%,0.7,-3.4,0.1,0.5,0.9,.
CC1CCCN(C(=S)Nc2ccc3nc4n(c(=O)c3c2)CCCCC4)C1 (stereo not drawn),-11%,0.67,-0.8,-3.0,-2.0,4.8,i
Cc1ccnn1CCC(=O)N1CCCC(N2CCN(c3cccc(Cl)c3)CC2)C1 (stereo not drawn),.,0.67,-0.2,-8.9,1.5,4.5,i
Cc1ccc(NC(=S)NNC(=S)NNc2ccccc2)cc1C,.,.,-1.6,7.8,.,.,i

# Screening data from PubChem.

# A portion of the library. The share of hits here may be higher or lower than overall.
